Screening data (PubChem BioAssay)
Sfp inh: blocks B. subtilis Sfp PPTase activity. actives 3.5% (n = 310,000). Biochemical Sfp PPTase activity, qHTS. Potency, µM, for the others: max response, negative = inhibition, actives largely listed as inhibitors; active = well fitted inhibition curve with a large enough effect; inconclusive = small, poorly fitted or top-dose-only effect, or another doubt; inactive = no such curve, though single readings can be large or run the other way;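 also: the enzyme is Sfp with the accession as filed and its product quenches rhodamine fluorescence; potency is read from the fitted curve at half-maximal effect; 0% = enzyme reaction without inhibitor and -100% = no enzyme wells; top concentration of the series not given in the record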
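Compounds were incubated with enzyme (final 15 nM) for 15 min at room temperature before substrate addition started the reaction. Fluorescence at 525 nm excitation, 598 nm emission was recorded immediately and after 30 minutes.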
ClpP mod: qHTS Assay for Activators of ClpP; actives 1.9% (n = 340,000); AID 651965, 2013; purified B. subtilis ClpP, FRET peptide cleavage, 20 min; Potency, µM (titrated, usually from 57.5 µM), for inactives: at the top dose activity change, negative = active; ATP-dependent Clp protease proteolytic subunit (Bacillus subtilis (strain 168)), P80244; active = well fitted falling curve with a large enough effect; inconclusive = small, poorly fitted or top-dose-only effect; inactive = no such curve, though single readings can be large or run the other way; also: potency is read from the fitted curve at half-maximal effect; the source files actives as falling curves though it sought activators and does not explain the sign; nearly all actives have a fitted effect of over 65% in size; many hits overshoot -100%
Target sequence (P80244 whole entry, looked up): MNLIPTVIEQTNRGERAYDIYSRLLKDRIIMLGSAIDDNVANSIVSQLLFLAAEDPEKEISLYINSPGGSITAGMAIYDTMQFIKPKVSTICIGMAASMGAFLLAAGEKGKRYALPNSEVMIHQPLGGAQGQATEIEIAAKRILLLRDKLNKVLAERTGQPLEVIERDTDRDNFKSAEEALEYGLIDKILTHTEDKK
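ClpP 10 microg/mL final, pH 8 Tris/KCl buffer with BSA, glycerol, Tween-20; compound pinned in; FRET-FV substrate; RT 20 min; Ex320/Em430; ΔFRET vs ADEP 5.8 microM, DMSO, no enzyme.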
TRPML1 inh: blocks the human TRPML1 channel | TRPML1-inducible cells, Ca2+ dye fluorescence, FDSS; hits give low values; inhibition of EC80 agonist-evoked calcium signal | activity change, negative = inhibition, % (no concentration beside the values) | actives 0.02% (n = 390,000) | AID 624415; in the data active means activity change below about -50%; inconclusive means about -30% to -50%; inactive means above about -30%;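 also: stimulus is agonist 54-4 at its EC80 concentration; % is scaled to controls: 0 for no effect and ±100 for the full control effect; compound concentration not given in the record; the text of the record puts the active cut at -80%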
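TRPML1-DL cells, Tet-induced overnight (~16 h, 37 °C) at 1,500 cells/well, were loaded with Ca8 no-wash dye plus quencher for 45-90 min at room temperature. Compounds were pinned during FDSS kinetic reading; agonist 54-4 at EC80 (4 uM final) then added.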
TRPV1 potentiator: human TRPV1 potentiation. TRPV1-expressing cells, Fluo-8 calcium influx, capsaicin EC20 potentiation; host cell line not named in the record; control for the full effect not named in the record. potentiation, % at 8.33 µM. actives 0.02% (n = 320,000); active means potentiation above 80%; inconclusive means 30% to 80%; inactive means below 30%; also: 0% is about no effect
Target sequence (Q8NER1 whole entry, looked up): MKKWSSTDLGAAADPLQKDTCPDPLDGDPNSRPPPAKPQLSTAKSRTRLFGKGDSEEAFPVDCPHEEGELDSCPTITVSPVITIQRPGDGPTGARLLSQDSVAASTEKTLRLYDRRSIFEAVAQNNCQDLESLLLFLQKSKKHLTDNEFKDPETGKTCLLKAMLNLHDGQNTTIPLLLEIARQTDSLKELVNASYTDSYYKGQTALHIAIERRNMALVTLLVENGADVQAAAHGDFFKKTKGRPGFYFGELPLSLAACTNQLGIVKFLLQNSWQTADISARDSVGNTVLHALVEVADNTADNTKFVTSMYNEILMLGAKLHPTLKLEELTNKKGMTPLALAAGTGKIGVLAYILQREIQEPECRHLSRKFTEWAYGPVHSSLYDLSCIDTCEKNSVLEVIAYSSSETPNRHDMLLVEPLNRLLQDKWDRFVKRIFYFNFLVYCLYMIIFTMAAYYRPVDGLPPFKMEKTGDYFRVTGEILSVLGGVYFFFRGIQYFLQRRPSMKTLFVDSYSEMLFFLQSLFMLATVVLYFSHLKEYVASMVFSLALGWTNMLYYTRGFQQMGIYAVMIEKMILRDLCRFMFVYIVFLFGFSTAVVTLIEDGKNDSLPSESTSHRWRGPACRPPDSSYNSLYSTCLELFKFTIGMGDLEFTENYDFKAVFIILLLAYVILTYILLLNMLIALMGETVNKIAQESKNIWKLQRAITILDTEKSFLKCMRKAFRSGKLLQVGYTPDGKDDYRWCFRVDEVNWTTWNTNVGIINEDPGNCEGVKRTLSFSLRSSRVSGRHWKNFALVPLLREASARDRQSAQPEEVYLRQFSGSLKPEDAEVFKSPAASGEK
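Cells expressing TRPV1 were dye-loaded with Fluo-8 and read kinetically: 10 s baseline, 3 min after compound (agonist portion), then 2 min after EC20 capsaicin (allosteric enhancer portion). Calcium-bound dye fluorescence at 480/520 nm.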
PINK1 modulator: PINK1 expression modulation; PINK1 immunofluorescence, high-content cytometry, 24 h; Potency, µM (doses to about 76.6 µM), without a hit: at the highest dose activation (PINK1 increase), actives largely listed as activators; actives 0.2% (n = 410,000); AID 624263; active = well fitted activation curve with a large enough effect; inconclusive = small, poorly fitted or top-dose-only effect; inactive = flat fitted curve, though single readings scatter; cell line not stated here;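 also: potency is read from the fitted curve at half-maximal effect; % of control where 0% means no effect; nearly all actives have a fitted effect of over 65% in size; a mitochondrial uncoupler was the plate control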
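Cells are seeded, rested 12 hours, then given compound at five concentrations or DMSO for 24 hours. After fixation, blocking and antibody staining, PINK1 amount and mitochondrial localization are scored; CCCP serves as control.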
TRPML1 ag: agonists of human TRPML1 channel. activation, % (test concentration not listed). TRPML1-expressing cells, Ca2+ dye fluorescence, FDSS; host cell line not named in the record; reference of the full effect not given here. Q9GZU1. actives 0.12% (n = 410,000); in the data active = activation above about 50%; inconclusive = about 30% to 50%; inactive = below about 30%; also: 0% is about no effect; the text of the record puts the active cut at 80%
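Agonist activity was taken from a 110 s kinetic Ca2+ dye read on the FDSS after pinning compounds onto TRPML1-DL cells. The cells were seeded at 1,500/well with Tet inducer, incubated about 16 h, then dye-loaded at room temperature.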
Menin-MLL FL inh: menin-MLL binding inhibition, fluorescein peptide. Fluorescence polarization, fluorescein-MLL peptide displacement from menin. FP activity change, % at 61.4 µM. 290,000 tested, under 10 active. AID 1766; inconclusive = falling polarisation curve, or a change in total fluorescence; inactive = total fluorescence flat and polarisation flat or rising; no compound was filed as active; the % refers to the polarisation; negative = inhibition;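 also: % of control where 0% means no effect; inhibitors lower the polarisation; unlabelled MLL peptide was the positive control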
* hit, by the source's call; ? = inconclusive; nt = not tested or not shown; [ ] = another dose, or the depositor's remark.

| no. | SMILES | Sfp inh | ClpP mod | TRPML1 inh | TRPV1 potentiator |
| --- | --- | --- | --- | --- | --- |
| 1 | O=C(Nc1ccccc1Cl)c1cccc(NC(=O)C2CCCC2)c1 | 6% | -0.8% | nt | -16 |
| 2 | COc1ccc2nc(Sc3c([N+](=O)[O-])nc(C)n3Cc3ccccc3)[nH]c2c1 | 15% | -3.2% | 2 | 17 |
| 3 | CCOC(=O)C1CCCN(C2=C(NS(=O)(=O)c3ccc(Br)cc3)C(=O)c3ccccc3C2=O)C1 (stereo not drawn) | ? | 6.0% | -11 | 7 |
| 4 | COc1ccc(Nc2nc(C)cc(C)c2C#N)cc1OC | 8% | 3.0% | ? | nt |
| 5 | COc1ccc(C2C(C#N)=C(C)NC3=C2C(=O)c2ccccc23)cc1 (stereo not drawn) | -4% | -1.1% | 7 | -18 |
| 6 | NC(=O)CSc1nc2ccccc2c(=O)n1CCc1ccccc1 | -8% | nt | 2 | -36 |
| 7 | COCCN1Cc2cccc(C(=O)N3CCN(c4ccccc4)CC3)c2C1=O | -1% | -0.3% | 5 | 9 |
| 8 | COc1ccccc1OCCN(C#N)c1nc(N(C)C)nc(N(C)C)n1 | 8% | -3.3% | -15 | -21 |

| no. | PINK1 modulator | TRPML1 ag | Menin-MLL FL inh |
| --- | --- | --- | --- |
| 1 | -0.5% | nt | -4.0 |
| 2 | -1.1% | -0.7 | 0.3 |
| 3 | ? | 3.3 | -10 |
| 4 | 2.6% | -0.4 | 2.3 |
| 5 | 14%[38.3 µM] | -0.2 | 1.7 |
| 6 | 9.4% | -0.1 | -1.2 |
| 7 | 0.8% | -0.5 | -0.5 |
| 8 | 0.1% | 0.9 | 1.3 |

Next part.
| no. | SMILES | Sfp inh | ClpP mod | TRPML1 inh | TRPV1 potentiator |
| --- | --- | --- | --- | --- | --- |
| 9 | Cc1ccc(-n2nc(C)c(C3C(C#N)=C(N)OC4=C3C(=O)CCC4)c2Cl)cc1 (stereo not drawn) | -2% | nt | nt | 1 |
| 10 | O=C(COc1cc2oc(=O)cc(-c3ccccc3)c2cc1Cl)NCCN1CCOCC1 | 1% | -9.7% | -10 | -14 |
| 11 | COc1ccc(S(=O)(=O)N2CCCC(C(=O)NC3CC3)C2)cc1Cl (stereo not drawn) | 9% | nt | -13 | ? |
| 12 | COc1ccc(Cl)cc1C(=O)Nn1cnc2ccccc2c1=O | 6% | -5.8% | -4 | nt |
| 13 | O=c1[nH]c(CCC2CCCC2)nc2ccccc12 | 13% | 9.9% | -22 | -7 |
| 14 | COc1ccccc1CNC(=O)COC(=O)c1ccc(-n2cnnn2)cc1 | nt | 3.0% | -5 | -11 |
| 15 | CCCn1c2ccccc2c2nnc(SCC(=O)OC)nc21 | 3% | -0.6% | -12 | -11 |
| 16 | O=C(OCC#CCSc1nnc(-c2ccc([N+](=O)[O-])cc2)o1)c1cccs1 | 5% | -0.1% | 4 | -1 |

| no. | PINK1 modulator | TRPML1 ag | Menin-MLL FL inh |
| --- | --- | --- | --- |
| 9 | nt | nt | -0.4 |
| 10 | 1.1% | -0.7 | 7.3 |
| 11 | -2.1% | 6.5 | 0.8 |
| 12 | nt | 0.7 | 1.5 |
| 13 | -4.0% | 0.0 | 4.2 |
| 14 | -0.2% | 0.1 | nt |
| 15 | -2.0% | 0.0 | -0.2 |
| 16 | -0.3% | -0.8 | 2.3 |

Seven compounds from above, limited to Menin-MLL FL inh, TRPML1 inh and PINK1 modulator.
# | compound | Menin-MLL FL inh | TRPML1 inh | PINK1 modulator
13 | O=c1[nH]c(CCC2CCCC2)nc2ccccc12 | 4.2 | -22 | -4.0%
16 | O=C(OCC#CCSc1nnc(-c2ccc([N+](=O)[O-])cc2)o1)c1cccs1 | 2.3 | 4 | -0.3%
9 | Cc1ccc(-n2nc(C)c(C3C(C#N)=C(N)OC4=C3C(=O)CCC4)c2Cl)cc1 (stereo not drawn) | -0.4 | nt | nt
15 | CCCn1c2ccccc2c2nnc(SCC(=O)OC)nc21 | -0.2 | -12 | -2.0%
10 | O=C(COc1cc2oc(=O)cc(-c3ccccc3)c2cc1Cl)NCCN1CCOCC1 | 7.3 | -10 | 1.1%
14 | COc1ccccc1CNC(=O)COC(=O)c1ccc(-n2cnnn2)cc1 | nt | -5 | -0.2%
12 | COc1ccc(Cl)cc1C(=O)Nn1cnc2ccccc2c1=O | 1.5 | -4 | nt

Next section:
| no. | SMILES | Sfp inh | ClpP mod | TRPML1 inh | TRPV1 potentiator |
| --- | --- | --- | --- | --- | --- |
| 17 | COc1ccccc1S(=O)(=O)Cc1ccc(C(=O)N2CCN(c3cccc(Cl)c3)CC2)o1 | -11% | 1.4% | 9 | 0 |
| 18 | NC(=O)COC(=O)c1cccc(S(=O)(=O)N2CCN(c3ccccc3)CC2)c1 | 10% | -2.8% | -27 | -5 |
| 19 | CSCCC(NC(=O)c1ccccc1)C(=O)NC1CCCC1 (stereo not drawn) | 8% | 0.6% | 13 | 6 |
| 20 | Cc1cc(C(=O)Nc2ccc3c(c2)OCO3)cs1 | 6% | -2.6% | 11 | -17 |
| 21 | COc1cc(OC)c(NC(=O)c2cn(C3CCCC3)c(=O)c3c2c2ccccc2n3C)cc1Cl | nt | -2.7% | 14 | nt |
| 22 | NC(=O)CC(NC(=O)Cc1ccc(Cl)cc1)c1ccc(NC2CCCCCC2)c([N+](=O)[O-])c1 (stereo not drawn) | -4% | -0.7% | 49 | -10 |
| 23 | ClC(Cl)(Cl)c1nc(N/N=C/c2ccncc2)c2ccccc2n1 | -5% | nt | 15 | 5 |
| 24 | O=C(Nc1ccccc1Cl)c1ccccc1 | 9% | nt | 5 | -6 |

| no. | PINK1 modulator | TRPML1 ag | Menin-MLL FL inh |
| --- | --- | --- | --- |
| 17 | 17%[38.3 µM] | -0.4 | 1.0 |
| 18 | -1.1% | 0.6 | 2.1 |
| 19 | 7.4%[38.3 µM] | 0.3 | 2.5 |
| 20 | 17%[38.3 µM] | 0.4 | -1.7 |
| 21 | -1.0% | -0.2 | nt |
| 22 | 3.1% | 0.3 | -2.8 |
| 23 | 4.1% | -0.2 | 2.8 |
| 24 | 3.4% | 1.3 | 0.0 |

Compounds from the list above that contain a thiophene ring, fused or not (2):
| no. | SMILES | Sfp inh | ClpP mod | TRPML1 inh | TRPV1 potentiator |
| --- | --- | --- | --- | --- | --- |
| 16 | O=C(OCC#CCSc1nnc(-c2ccc([N+](=O)[O-])cc2)o1)c1cccs1 | 5% | -0.1% | 4 | -1 |
| 20 | Cc1cc(C(=O)Nc2ccc3c(c2)OCO3)cs1 | 6% | -2.6% | 11 | -17 |

| no. | PINK1 modulator | TRPML1 ag | Menin-MLL FL inh |
| --- | --- | --- | --- |
| 16 | -0.3% | -0.8 | 2.3 |
| 20 | 17%[38.3 µM] | 0.4 | -1.7 |

Back to the main list with the 3 entries that preceded the break.
| no. | SMILES | Sfp inh | ClpP mod | TRPML1 inh | TRPV1 potentiator |
| --- | --- | --- | --- | --- | --- |
| 22 | NC(=O)CC(NC(=O)Cc1ccc(Cl)cc1)c1ccc(NC2CCCCCC2)c([N+](=O)[O-])c1 (stereo not drawn) | -4% | -0.7% | 49 | -10 |
| 23 | ClC(Cl)(Cl)c1nc(N/N=C/c2ccncc2)c2ccccc2n1 | -5% | nt | 15 | 5 |
| 24 | O=C(Nc1ccccc1Cl)c1ccccc1 | 9% | nt | 5 | -6 |
| 25 | CCCS(=O)(=O)NC(=O)C1(C)CCN(C(=O)c2ccccc2F)C1 (stereo not drawn) | nt | 0.3% | nt | nt |
| 26 | Cc1cc(C)nc(N/N=C2/CCSc3ccc(F)cc32)n1 | 15% | nt | -3 | -4 |
| 27 | Cc1ccc(OC(C)C(=O)Nc2ccc3c(c2)n(C)c(=O)n3C)cc1C (stereo not drawn) | 21% | nt | 2 | -5 |
| 28 | COc1ccc(N2CCN(C(CNC(=O)C(=O)NCC3CCCO3)c3ccco3)CC2)cc1 (stereo not drawn) | -10% | -0.1% | 16 | -1 |
| 29 | O=C1CCCC2=C1CC(C(=O)OCc1ccccc1)C(=O)N2Cc1ccccc1 (stereo not drawn) | nt | -12% | 16 | nt |
| 30 | CCCSc1nnc2c(n1)OC(c1ccc(OCC(=O)O)cc1)Nc1ccccc1-2 (stereo not drawn) | nt | -2.0% | -7 | nt |
| 31 | Cc1ccc(Cl)cc1NC(=O)N[C@@H](CC(C)C)C(=O)O | 15% | nt | -8 | 12 |
| 32 | CN(Cc1ccccc1F)c1nc(-c2cccnc2)nc2ccccc12 | -27% | 0.0% | -1 | 28 |

| no. | PINK1 modulator | TRPML1 ag | Menin-MLL FL inh |
| --- | --- | --- | --- |
| 22 | 3.1% | 0.3 | -2.8 |
| 23 | 4.1% | -0.2 | 2.8 |
| 24 | 3.4% | 1.3 | 0.0 |
| 25 | 0.0% | 0.0 | nt |
| 26 | 0.4% | 0.0 | -0.7 |
| 27 | -1.2% | 0.7 | -0.2 |
| 28 | -1.1% | 0.9 | 1.4 |
| 29 | 1.1% | 0.4 | nt |
| 30 | 0.0% | 0.0 | nt |
| 31 | -0.7% | -0.3 | 1.8 |
| 32 | -0.1% | 2.4 | 5.7 |

Next entries follow.
| no. | SMILES | Sfp inh | ClpP mod | TRPML1 inh | TRPV1 potentiator |
| --- | --- | --- | --- | --- | --- |
| 33 | O=C1CN(C(=O)c2cccc(F)c2)C(c2ccc(F)cc2)c2cc(F)ccc2N1 (stereo not drawn) | -2% | 0.4% | 10 | -22 |
| 34 | COc1ccc(NC(=O)C2=C(C)C(=O)OC23CCC(C)CC3)c(OC)c1 (stereo not drawn) | 12% | 0.6% | 10 | -38 |
| 35 | CCOC(=O)c1cnc2c(-c3ccc(Cl)cc3)cnn2c1C | 23% | nt | 6 | 16 |
| 36 | CCOCCc1nnc(NC(=O)C(=O)c2cc(C)n(-c3cccc(Cl)c3)c2C)s1 | nt | -0.1% | 15 | nt |

| no. | PINK1 modulator | TRPML1 ag | Menin-MLL FL inh |
| --- | --- | --- | --- |
| 33 | 0.8% | 0.2 | 0.0 |
| 34 | 2.5% | 0.1 | 1.0 |
| 35 | 4.1% | -0.3 | -1.3 |
| 36 | -1.4% | 0.8 | nt |
